# Beta2AR agonist – beta2AR agonists driving receptor internalization, primary screen, cell-based, FAP fluorogen, flow cytometry; response, % (no concentration beside the values); Am2.2-beta2AR cells; reference of the scale not given here; Beta-2 adrenergic receptor (Homo sapiens), P07550; 340,000 compounds, 0.43% hits; AID 504454, 2011;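 active = response above a set limit, near 3 SD of response in nonfluorescent compounds, cut at about 42% in these data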;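 note: stock transfer was 100 nL into about 11 µL; a reference agonist was the positive control; negative values mostly stem from fluorescent compounds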
# HNF4A DNA FP – change in binding of human HNF4A to DNA, primary screen, biochemical, fluorescence polarization, FITC-DNA; Hepatocyte nuclear factor 4-alpha (Homo sapiens), P41235; activity change, % at 10 µM; 360,000 compounds, 0.3% hits; 1 h; AID 1224865, 2016; in the data active = activity change above about 30%, passing the limit was not always enough;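 note: controls were the assay level and a saturating level of protein; the project sought stronger binding though the title names inhibitors; some compounds called inactive have numbers as strong as hits; positive values seem to mean higher polarization but the record does not say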
# Target sequence (P41235 whole entry, looked up): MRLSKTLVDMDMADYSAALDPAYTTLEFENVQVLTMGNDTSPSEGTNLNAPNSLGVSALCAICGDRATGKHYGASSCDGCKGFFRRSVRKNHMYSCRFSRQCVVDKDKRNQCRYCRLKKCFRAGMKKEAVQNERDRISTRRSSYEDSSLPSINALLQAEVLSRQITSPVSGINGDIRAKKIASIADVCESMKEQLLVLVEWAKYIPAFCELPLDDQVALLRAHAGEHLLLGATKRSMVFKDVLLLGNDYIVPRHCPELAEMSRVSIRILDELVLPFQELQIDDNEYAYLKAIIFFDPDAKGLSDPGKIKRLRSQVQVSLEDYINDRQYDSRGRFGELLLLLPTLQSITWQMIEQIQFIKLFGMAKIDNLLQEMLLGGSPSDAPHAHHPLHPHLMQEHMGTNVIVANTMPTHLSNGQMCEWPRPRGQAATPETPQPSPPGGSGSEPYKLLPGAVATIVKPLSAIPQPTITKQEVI
# Ecoli growth – E. coli growth inhibition, primary screen, OD600; Escherichia coli growth, 23 h; active compounds read low; OD600 absorbance (no concentration beside the values); 330,000 compounds, 0.21% hits;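 active = OD600 absorbance below the run mean of sample wells minus 3.6 SD, in any replicate, cut at about 0.56 in these data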;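 note: stock transfer was 300 nL into about 60 µL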
# FGF22 binding – binders of human FGF22 protein, primary screen, FGF22 synaptogenesis inhibitor project, biophysical, thermal shift, single point | 340,000 compounds, 1.5% hits | AID 651658, 2012 | recombinant FGF22 thermal shift, SYPRO orange fluorescence; percent of sucrose octasulfate shift, DMSO zero | calls only at 9.99 µM | Fibroblast growth factor 22 (Homo sapiens), Q9HCT0;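 active = melting point raised past a set limit in the mean and every replicate; three in four hits are not shown here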
# UCH37 DUB inh – inhibitors of human UCH37 deubiquitinase, primary screen, biochemical, Ub-AMC cleavage, fluorescence; 330,000 compounds, 0.33% hits; AID 588478, 2011; purified proteasome/UCH37; inhibition, % (no concentration beside the values); Ubiquitin carboxyl-terminal hydrolase isozyme L5 (Homo sapiens), Q9Y5K5;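 active = mean of two replicates above 20%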;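 note: 0% = compound-free wells with enzyme and 100% = wells lacking proteasome; stock transfer was 100 nL into about 20 µL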
# Target sequence (Q9Y5K5 whole entry, looked up): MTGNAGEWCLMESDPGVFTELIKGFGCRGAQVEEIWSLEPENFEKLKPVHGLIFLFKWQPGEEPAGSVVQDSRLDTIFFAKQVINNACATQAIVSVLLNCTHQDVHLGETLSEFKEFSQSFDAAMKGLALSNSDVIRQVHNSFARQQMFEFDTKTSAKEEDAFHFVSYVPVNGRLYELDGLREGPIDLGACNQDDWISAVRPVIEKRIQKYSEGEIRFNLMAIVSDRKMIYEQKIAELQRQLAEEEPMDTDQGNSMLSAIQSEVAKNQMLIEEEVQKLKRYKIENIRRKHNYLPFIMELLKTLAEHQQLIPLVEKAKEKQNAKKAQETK
#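 System: Proteasome-associated human UCH37 deubiquitinase; Input: 0.15 nM proteasome in added enzyme buffer; Also added: Ub-AMC substrate from 1 µM stock; Incubation: 30 min compound-proteasome preincubation then 25 min substrate reaction, room temperature; Detection: fluorescence, ex 355 nm, em 460 nm; Read-out: % inhibition of Ub-AMC cleavage fluorescence; Benchmarks: no-proteasome and no-compound wells.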
# ALR inh – inhibitors of human ALR sulfhydryl oxidase, primary screen, biochemical, H2O2 detection, HRP-luminol luminescence, single point | FAD-linked sulfhydryl oxidase ALR (Homo sapiens), P55789 | purified ALR, DTT oxidation | inhibition, % (no concentration beside the values) | 290,000 compounds, 3.8% hits;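 active = mean and each replicate at 75% or more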;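 note: stock transfer was 7.5 nL into about 7.5 µL; 0% = neutral wells and 100% = wells with inactivated enzyme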
# Target sequence (P55789 whole entry, looked up): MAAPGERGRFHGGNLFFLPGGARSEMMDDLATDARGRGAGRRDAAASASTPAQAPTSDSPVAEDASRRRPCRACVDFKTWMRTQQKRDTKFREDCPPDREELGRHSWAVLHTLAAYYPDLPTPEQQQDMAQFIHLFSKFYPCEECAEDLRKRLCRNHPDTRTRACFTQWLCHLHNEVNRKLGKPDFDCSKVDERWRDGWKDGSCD
# rRNA inh HTS – reduced GFP signal of wild-type E. coli, primary screen, bacterial rRNA inhibitor project, GFP/RFP fluorescence, OD600, single point. E. coli WT GFP vs humanized-ribosome RFP mutants, 24 h; active compounds read low; DMSO median 0, no signal -100. 350,000 compounds, 1.6% hits. AID 720706, 2013. GFP signal change (wild-type ribosome), % (concentration not given with the values);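 active = significant combined selectivity score with lowered wild-type GFP, culture density cut under 30%, mutant RFP and density less affected; inactive = any of these conditions unmet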; note: one replicate is shown; some compounds called inactive have numbers as strong as hits
# rRNA inh HTS OD600 – recorded beside rRNA inh HTS, whose call it bears; OD600 change, %; measured here: OD600 growth;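 optical density of the mix in the first replicate; 0 = DMSO median and -100 = no signal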
# rRNA inh HTS RFP – second read-out of rRNA inh HTS, no call of its own (marks repeat the call); RFP signal change, %; measured here: RFP humanized mutant strains;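 first replicate; 0 = DMSO median and -100 = no signal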
# Active calls of the source: *; i = inactive; x = no result given. These rows are one share of the data (hit frequency here may not be typical).
# Order of values: Beta2AR agonist	HNF4A DNA FP	Ecoli growth	FGF22 binding	UCH37 DUB inh	ALR inh	rRNA inh HTS	rRNA inh HTS OD600	rRNA inh HTS RFP
COC(=O)c1cc2c(n(-c3ccccc3)c1=O)CCCC2=O
    5.8	3.1	0.696	i	-16.5	x	22.5	6.8	1.3
COc1ccc2c(c1)[C@H]1[C@H](CO2)[C@H](c2ccccc2)[C@]2(C)C(=O)Nc3ccc(F)cc3C(=O)N12
    6.5	0.9	x	i	x	0.0	1.5	1.2	8.8
CN(C(=O)c1ccc(NC(=O)Cc2ccc(NC(=O)C3CCN(C(=O)CCc4ccccc4)CC3)cc2)cc1)C1CC1
    4.3	0.6	0.745	i	0.1	-2.4	-16.0	-15.1	2.0
CCOC(=O)C(=O)Nc1ccc(OC)c(Cl)c1
    13.3	-5.4	0.678	i	-0.1	-4.2	10.8	18.0	-5.3
O=[N+]([O-])c1cc(S(=O)(=O)NC2=NCCCCC2)ccc1NCC1CCCCC1
    -3.8	3.9	0.63	x	0.1	-36.7	-19.9	-39.6	2.5
COc1cc(CNCc2ccc(Br)cc2)cc(OC)c1
    -5.3	0.9	0.614	i	1.2	-11.8	6.7	0.0	-1.7
COC(=O)c1ccc(C(=O)OC)c(NC(=O)CN2CCN(c3ccc(OC)cc3)CC2)c1
    -0.5	2.4	0.732	x	-0.8	-1.4	x	x	x
Nc1c(C(=O)Nc2ccccc2F)sc2nc(-c3ccco3)ccc12
    9.9	19.8	0.694	x	-80.6	8.3	x	x	x
NNC(=O)Cc1cccc2ccc(Cl)cc12
    x	1.9	x	i	x	x	-4.4	-14.6	-1.0
CC1(C)CC(CCNC(=O)c2ccc(-n3cnnn3)cc2)CC(C)(C)N1
    5.2	-2.9	0.805	x	2.6	x	x	x	x
O=C(O)CCn1nnc(-c2cccs2)n1
    3.4	-0.8	0.704	x	0.2	1.2	x	x	x
N#Cc1ccc(Oc2cccc(C(=O)O)c2)cc1C#N
    -1.9	-0.8	0.722	x	-0.4	-3.7	x	x	x
COC(=O)C1CCN(C2=C(NS(=O)(=O)c3ccc(Cl)cc3)C(=O)c3ccccc3C2=O)CC1
    3.8	2.5	0.73	i	3.8	2.4	-10.5	-5.5	4.9
O=C(O)C1C2C=CC(C2)C1C(=O)NCc1cccs1 (stereo not drawn)
    12.4	-4.5	0.75	i	0.1	3.5	-10.9	-8.7	1.2
COc1ccccc1N1CCN(C(=O)c2ccc(NS(=O)(=O)c3ccc(C)cc3)cc2)CC1
    -0.4	-1.2	0.663	i	4.8	-2.0	-2.2	-12.9	16.1
Cc1nnc(SCc2ccc(Cl)cc2Cl)[nH]c1=O
    0.2	1.0	0.676	x	4.2	x	x	x	x
COc1cccc(C=O)c1OCCN1C(=O)c2ccccc2C1=O
    4.3	0.9	0.662	i	4.2	28.6	9.8	2.5	1.4
Cn1nc(C(=O)NCc2cccc(Cl)c2)c2c1-c1ccccc1S(=O)(=O)C2
    5.1	-3.5	0.673	i	1.4	-3.7	6.7	15.2	0.9
COc1ccc2cc3c(N)nn(C(=O)Cc4c[nH]c5ccccc45)c3nc2c1
    16.3	1.1	0.657	i	-2.7	6.6	-33.4*	-2.2*	-0.1*
CC(=O)Nc1nc2c(F)cccc2s1
    -2.8	2.9	0.769	i	4.5	-4.3	3.5	3.6	-2.0
Cc1ccc(NC(=O)Nc2cccc(F)c2)nc1
    -3.9	-0.1	0.694	i	5.1	14.2	6.8	7.8	-5.7
Cc1cccc(/C=N/c2sc3c(c2C(=O)OC(C)(C)C)CCN(C)C3)c1O
    -6.8	1.2	x	x	x	21.3	x	x	x
Cc1nc2cc(-c3ccc(F)cc3)[nH]n2c(=O)c1C
    0.9	-1.4	0.625	i	-11.7	15.4	7.1	5.3	-2.3
NC(=O)NNC1=Nc2cccc3cccc1c23
    13.4	0.4	0.671	i	4.0	-7.6	4.5	5.3	0.7
CNC(=S)N/N=C/c1c(C)nn(-c2ccccc2)c1Cl
    2.5	-2.9	x	x	x	18.5	x	x	x
CC(C)(C)n1nnnc1C(c1ccc(Cl)cc1)N(Cc1cccnc1)Cc1ccco1 (stereo not drawn)
    5.7	-3.8	0.779	x	0.3	-0.5	x	x	x
O=C(c1c[nH]c2ccccc12)C(Cl)c1ccccc1 (stereo not drawn)
    -5.1	-3.4	x	i	x	2.6	-23.6*	-9.2*	-2.4*
CC(=NC1CC1)c1c(-c2ccccc2)[nH]n(-c2nc3ccccc3s2)c1=O
    -2.0	-3.9	0.714	x	5.4	31.6	x	x	x
O=S(=O)(c1ccc(NCCOc2ccccc2)nc1)N1CCCC1
    -0.5	-0.4	0.629	i	2.2	x	1.5	-15.1	-0.1
O=C(O)c1ccc(CS(=O)(=O)c2cccc(C(F)(F)F)c2)o1
    8.3	0.6	0.745	x	-3.1	-9.3	x	x	x
Fc1cccc(NCCc2c[nH]c3ccccc23)n1
    -5.5	1.2	0.648	i	-0.4	64.4	-14.2	-7.4	-2.8
Cc1ccc(NC(=O)COC(=O)CCNS(=O)(=O)c2c(Cl)cccc2Cl)cc1
    -0.5	0.2	0.667	i	1.7	0.4	-14.4*	-11.2*	4.8*
CC(=O)NC(CCS(C)(=O)=O)C(=O)Nc1ccc2c(c1)OCCO2 (stereo not drawn)
    -5.6	1.4	0.594	i	2.5	-16.6	14.9	8.2	1.1
CC(C)Cc1ccc(C(C)C(N)=NCCc2ccccc2)cc1 (stereo not drawn)
    31.0	1.9	x	i	x	-29.1	-57.2	-80.8	-16.8
O=C(CCNC(=O)Cn1ccc2ccccc2c1=O)NCCc1ccccc1Cl
    -1.9	0.8	0.695	i	-23.0	11.5	14.6	14.4	5.6
CC(C)CNC(=O)c1cccc(NC(=O)Cc2ccc(Cl)cc2)c1
    -9.5	-2.6	0.609	x	1.3	-2.8	x	x	x
O=C(NCc1cccnc1)Nc1cccc(NC(=O)NCc2cccnc2)c1F
    -3.9	-3.0	0.67	i	2.1	-11.2	6.3	5.6	3.6
O=C(CN1C(=O)CCSc2ccc(S(=O)(=O)N3CCCC3)cc21)Nc1ccccc1Cl
    -0.2	-5.7	0.681	i	1.3	3.9	3.8	11.9	-1.5
COc1ccc(O)c(C(=O)c2coc(=N)c(C(=O)Nc3ccc(SC(F)F)cc3)c2)c1
    8.7	44.1*	0.702	i	5.0	4.2	-33.8	44.6	-4.9
O=C(Nc1c(F)c(F)c(F)c(F)c1F)NC1CCCCC1
    9.8	-0.3	0.675	x	1.1	-1.0	x	x	x

# 2 of the compounds above, as tab-separated lines.
Structure	Beta2AR agonist	HNF4A DNA FP	Ecoli growth	FGF22 binding	UCH37 DUB inh	ALR inh	rRNA inh HTS	rRNA inh HTS OD600	rRNA inh HTS RFP
O=S(=O)(c1ccc(NCCOc2ccccc2)nc1)N1CCCC1	-0.5	-0.4	0.629	i	2.2	x	1.5	-15.1	-0.1
O=C(O)c1ccc(CS(=O)(=O)c2cccc(C(F)(F)F)c2)o1	8.3	0.6	0.745	x	-3.1	-9.3	x	x	x

# (next part)
# Order of values: Beta2AR agonist	HNF4A DNA FP	Ecoli growth	FGF22 binding	UCH37 DUB inh	ALR inh	rRNA inh HTS	rRNA inh HTS OD600	rRNA inh HTS RFP
Cc1cccnc1NC(=O)c1nn(C)c2c1CS(=O)(=O)c1ccccc1-2
    -19.4	0.8	0.659	i	1.4	-2.1	-1.2	12.3	-0.8
O=C(COC(=O)Cc1ccc(Cl)cc1)Nc1ccccc1F
    0.6	5.8	0.641	i	3.4	-1.3	2.1	8.3	8.1
Cc1cc(S(=O)(=O)N2CCCCCC2)c(Cl)cc1Cl
    -7.0	-1.6	0.66	x	-1.4	-2.8	x	x	x
COc1ccc(NC(=O)C(=O)NCC(c2ccco2)N2CCc3ccccc3C2)cc1OC (stereo not drawn)
    -0.1	5.2	0.703	i	3.3	-6.7	0.6	-3.8	0.2
Cc1cccc(NS(=O)(=O)c2ccc(NC(=O)N3CCCCC3)cc2)c1
    -1.4	0.4	0.712	i	1.8	4.9	3.8	-5.1	1.4
O=C(COC(=O)c1cc(=O)[nH]c(=O)[nH]1)Nc1cccc(S(=O)(=O)N2CCCCC2)c1
    -1.1	0.3	0.714	i	1.7	-11.1	-0.8	-3.6	-1.5
CC1=C(C(=O)Nc2ccc(C)cn2)C(c2cnn(C)c2)C2=C(CCCC2=O)N1 (stereo not drawn)
    -7.9	-0.5	0.657	i	-121.8	-3.1	8.3	13.3	1.1
CCOc1ccc(/C=C/C(=O)Nc2ccccc2C(F)(F)F)cc1
    2.2	0.2	0.744	x	5.5	-0.3	x	x	x
CC(NCc1ccc(F)cc1)C(=O)NC1CCCCC1 (stereo not drawn)
    -2.3	-1.7	0.681	x	0.1	-32.5	16.1	15.8	0.9
COc1cc(OC)c(N(C)S(=O)(=O)c2cccc(C(=O)OCC(=O)c3c[nH]c4ccccc34)c2)cc1Cl
    5.2	2.5	0.694	x	-1.3	-6.9	x	x	x
Cc1cc(C)cc(OCC(=O)NNC(=O)CN2C(=O)c3ccccc3C2=O)c1
    3.9	-3.4	0.682	x	4.2	-31.6	x	x	x
O=C(Cc1ccc(F)cc1)Nc1ccc2[nH]ncc2c1
    -4.9	-5.1	0.669	i	2.7	x	3.2	8.5	1.6
COc1ccccc1C(=O)C1CCCN(C(=O)c2cc(C(C)C)no2)C1 (stereo not drawn)
    -4.1	-1.9	0.75	i	3.2	-0.8	1.5	-3.4	-0.5
O=C(NC(=S)Nc1cccc(Cl)c1N1CCCCC1)c1ccco1
    -5.2	-5.0	0.653	i	2.2	-2.5	-3.0	-9.3	22.6
Cc1ccc(S(=O)(=O)NC(=O)Nc2nnc(C)s2)cc1
    8.8	4.9	0.725	x	1.9	-2.2	x	x	x
O=C(CN1C(=O)NC2(CCCCC2)C1=O)NCCC1=CCCCC1
    1.3	1.3	0.666	i	-0.2	-4.5	9.5	-1.1	0.9
Cc1ccnc2nc(NC(=O)c3ccco3)nn12
    -2.4	-2.9	0.685	i	-0.2	-12.0	3.4	9.8	-4.5
N#CCc1ccc(OC(=O)Nc2ccccc2)cc1
    -3.5	-1.9	0.706	i	0.1	-58.7	20.2	17.1	1.1
COc1ccc(C(=O)NCC(=O)N/N=C/c2cccnc2)cc1OC
    3.8	0.5	x	i	x	4.2	9.2	3.9	-3.5
CN1CCc2ccccc2C1Cc1ccccc1NC(=O)c1sc2ccccc2c1Cl (stereo not drawn)
    -1.0	1.7	0.724	i	2.8	-1.1	-0.4	-13.6	14.0
CCOC(=O)c1ccccc1NC(=O)CC(C)CC(=O)O (stereo not drawn)
    9.9	-3.0	0.747	x	1.8	-13.6	x	x	x
O=C(NNC(=O)C1CCCO1)c1ccc([N+](=O)[O-])cc1 (stereo not drawn)
    -9.0	-1.5	0.607	i	2.0	x	7.5	8.9	-3.5

# A few values from the results shown.
# Under rRNA inh HTS, CN1CCc2ccccc2C1Cc1ccccc1NC(=O)c1sc2ccccc2c1Cl (stereo not drawn) has the entry -0.4
# Under rRNA inh HTS OD600, COc1cccc(C=O)c1OCCN1C(=O)c2ccccc2C1=O has the entry 2.5

# High-throughput results (PubChem)
